# High-throughput results deposited in PubChem by National Center for Advancing Translational Sciences (NCATS).
# GLA inh pH 4.5: alpha-galactosidase A (human) inhibition, pH 4.5 | P06280 | purified enzyme, 4-MU-alpha-Gal fluorescence, pH 4.5 | activity change, negative = inhibition, % at 105 µM | 230,000 tested, under 10 active; inconclusive = small, poorly fitted or top-dose-only inhibition, or a rising curve; inactive = flat fitted curve, though single readings scatter; no compound was filed as active;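 note: 0% = full activity with enzyme and -100% = basal without enzyme; dose as in the result columns while the protocol names 77 µM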
# miR-21 reporter: raises the signal of a miR-21 reporter; HeLa miR-21 FLuc reporter, luciferase, 48 h; 340,000 tested, under 10 active; Potency, µM (series often up to 38.3 µM), inactives show at the highest dose reporter change, positive = more light; active = well fitted rising curve with a large enough effect; inconclusive = small, poorly fitted or top-dose-only effect; inactive = no such curve, though single readings can be large or run the other way;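 note: % of control where 0% means no effect; miR-21 action dims this reporter so a rising signal means less miR-21 action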
#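 HeLa miR-21-FLuc reporter line, endogenous miR-21; 2000 cells/well in DMEM/10% FBS; compound titration up to ~40uM final, 48 h, 37 degree Celsius; luciferase detection reagent, 15 min lysis, CCD luminescence.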
# Rango-impB inh: inhibitors of Rango-importin beta complex formation. Q14974. Rango CFP/YFP FRET sensor + importin beta, 45 min. Potency, µM (titrated, usually from 92.2 µM), inactives show at the top dose inhibition of complex formation. hit rate 0.031% among 340,000. AID 540263; active = rising FRET ratio curve, often small or poorly fitted; inconclusive = mostly compound fluorescence or quenching in the first reads; inactive = flat curves in all reads;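 note: potency is the fitted concentration of half-maximal effect; 0% = DMSO wells and 100% = buffer wells lacking importin beta; nearly all actives have a fitted effect of over 15% in size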
# Target sequence (Q14974 whole entry, looked up): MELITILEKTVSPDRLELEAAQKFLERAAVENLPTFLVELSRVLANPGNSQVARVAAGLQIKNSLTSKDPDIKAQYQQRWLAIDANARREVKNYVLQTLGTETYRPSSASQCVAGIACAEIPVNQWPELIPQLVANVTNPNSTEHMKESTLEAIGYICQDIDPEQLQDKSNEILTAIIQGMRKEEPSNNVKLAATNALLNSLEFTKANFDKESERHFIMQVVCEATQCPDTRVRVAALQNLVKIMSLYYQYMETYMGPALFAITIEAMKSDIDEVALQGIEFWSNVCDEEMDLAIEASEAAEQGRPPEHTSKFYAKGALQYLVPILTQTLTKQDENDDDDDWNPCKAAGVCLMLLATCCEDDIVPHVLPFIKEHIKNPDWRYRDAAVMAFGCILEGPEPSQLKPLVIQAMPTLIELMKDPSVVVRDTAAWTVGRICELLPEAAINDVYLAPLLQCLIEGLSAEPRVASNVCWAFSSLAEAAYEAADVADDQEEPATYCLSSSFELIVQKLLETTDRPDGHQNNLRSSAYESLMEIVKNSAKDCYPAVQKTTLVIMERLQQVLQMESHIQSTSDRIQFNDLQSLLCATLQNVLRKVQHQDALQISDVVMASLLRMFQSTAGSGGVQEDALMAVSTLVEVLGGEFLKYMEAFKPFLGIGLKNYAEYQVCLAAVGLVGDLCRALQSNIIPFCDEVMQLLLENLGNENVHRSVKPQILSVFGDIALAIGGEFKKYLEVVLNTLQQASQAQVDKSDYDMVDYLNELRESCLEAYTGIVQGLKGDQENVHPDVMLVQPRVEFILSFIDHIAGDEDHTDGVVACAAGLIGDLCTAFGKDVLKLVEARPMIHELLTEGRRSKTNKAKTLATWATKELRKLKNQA
#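 FRET biosensor Rango (snurportin 1 IBB between N-terminal EYFP and C-terminal Cerulean), 50 nM in PBS/1 mM DTT/0.02% Tween-20/0.1% BSA, preincubated 5 min RT with compound; 0.125 microM importin beta added, 45 min RT, CFP/YFP FRET ratio read.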
# Rango release inh: inhibitors of RanGTP-induced Rango-importin beta complex dissociation; Biochemical FRET Rango-importin beta, RanGTP-induced dissociation; AID 540253; hit rate 0.071% among 340,000; Potency, µM (top dose mostly 46.1 µM), inactives show at the highest dose activity change, negative = inhibition; O95149+P62826; active means falling FRET ratio curve, often poorly fitted, with flat reads before Ran was added; inconclusive means other falling curves, or compound fluorescence or quenching; inactive means flat or rising ratio curve;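 note: potency is the fitted concentration of half-maximal effect; % of control where 0% means no effect; nearly all actives have a fitted effect of over 45% in size; -100% = wells without RanGTP and RCC1; the record marks most hits as doubtful in a second field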
#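 Compounds preincubate 5 min with complex of recombinant Rango and importin beta in PBS with 1 mM DTT. Ran (0.6 uM) loaded with 2 mM GTP plus 0.2 uM RCC1 starts dissociation; FRET is recorded 45 min later.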
# * = called active by the depositor; ? = inconclusive; / = not tested or not shown; & = joins results of further samples.
GLA inh pH 4.5	miR-21 reporter	Rango-impB inh	Rango release inh	molecule
/	18%	1.4%	32%	COc1cccc(OC)c1OCCCN1CCC(Cc2ccccc2)CC1
/	-4%	3.0%	-3%	Cc1cccc(N2CCN(C3CCCCC3NS(=O)(=O)c3ccccc3)CC2C)c1 (stereo unspecified)
/	5%	-1.0%	-6%	CCC(C)c1ccc(S(=O)(=O)N2CCN(c3ccccn3)CC2)cc1 (stereo unspecified)
/	/	3.1%	-13%	CCOc1cc(N2CCOCC2)c(OCC)cc1NC(=O)Cn1nc(C)c([N+](=O)[O-])c1C
-9	-4%	?	13%	C=CCn1c(SCCCCCC)nc(O)cc1=O
3	-14%	0.2%	-2%	COc1ccc(-c2nsc(SCC(=O)Nc3ccc4c(c3)OCO4)n2)cc1
-9	1%&-14%	?	-15%	Cc1ccccc1NC(=O)Nc1cccs1
/	/	5.8%	2%	Cc1cc(=O)[nH]c(SCC(=O)NC2CCCCCC2)n1
-4	0%	-2.8%	-18%	CCn1c(SCC(=O)Nc2cc(C)on2)nnc1-c1c[nH]c2ccccc12
-2	-2%	0.5%	4%	Cc1csc(Sc2ccc([N+](=O)[O-])cc2C(=O)OCC(=O)NC2CCCC(C)C2C)n1 (stereo unspecified)
/	/	2.1%	15%	CCN(CC(=O)Nc1c(F)cccc1F)C(=O)CCSc1ccc(F)cc1
-2	-19%	?	-20%	CC1(C)CC(=O)C=C(NCC(=O)O)C1
/	-1%	0.1%	4%	CCCCCN(C(=O)CCC(=O)OCC(=O)c1cccc(OC)c1)c1c(N)n(CCCC)c(=O)[nH]c1=O
6	-2%	-0.1%	-2%	CC1=C(C)[N+](=O)C2(O)CCCCC2(C)N1[O-] (stereo unspecified)
/	/	-2.6%	-7%	COc1ccc(CCC(=O)Nc2cc(S(=O)(=O)N3CCCCC3)ccc2N(C)C)cc1
-8	5%	-0.4%	9%	Cc1ccccc1OCCC(=O)Nc1cccc(S(=O)(=O)Nc2ccccc2Cl)c1
/	/	-0.1%	-2%	O=C(Oc1ccc(/C=N/NC(=O)c2ccco2)cc1)c1ccccc1
0	4%	-6.0%	-15%	COC(=O)Cn1cc(/C=C/[N+](=O)[O-])c2ccccc21
?	-23%	0.2%	10%	CN(C)c1nc(SCc2ccccc2)nc(N2CCOCC2)n1
/	-2%	-3.0%	19%	CC(=O)C1=C(O)C(=O)N(c2ccc(Br)cc2)C1c1cccc(F)c1 (stereo unspecified)
?	-62%	1.3%	4%	Cc1[nH]n(C(N)=S)c(=O)c1N=Nc1ccc2ccccc2c1
/	0%	-5.6%	-6%	O=C(NNC(=O)C1CCCCC1)c1ccncc1
/	/	0.1%	-3%	CN(c1ccccc1)S(=O)(=O)c1ccc(C(=O)NNC(=O)c2ccccc2)cc1
2	0%	3.6%	8%	NC(=O)CCc1c[nH]c2ccccc12
/	/	-1.7%	19%	CC(=O)N1CCN(C(=O)c2cc(C)oc2C)CC1
/	1%	0.2%	-4%	CC(C)C[C@H](NC(=O)[C@H](Cc1ccccc1)n1c(=O)[nH]c2ccccc2c1=O)C(=O)N1CCC[C@H]1C(=O)O
-18	-19%	1.1%	6%	Cc1ncc(/C=C2\C(=O)Nc3ccccc32)[nH]1
/	-35%	-2.0%	?	Cc1ccccc1Cn1nnc(-c2ccc(F)cc2)n1
/	/	0.0%	0%	Cc1ccc(-c2cc(=O)[nH]c3ccccc23)cc1
/	1%	-1.2%	8%	COc1ccccc1C1CCN(Cc2ccc(Cl)cc2Cl)CC1

# One compound at a time (already shown). Screens in order: GLA inh pH 4.5 | miR-21 reporter | Rango-impB inh | Rango release inh
# `COC(=O)Cn1cc(/C=C/[N+](=O)[O-])c2ccccc21` is listed as 0 | 4% | -6.0% | -15%
# `Cc1csc(Sc2ccc([N+](=O)[O-])cc2C(=O)OCC(=O)NC2CCCC(C)C2C)n1` (stereo unspecified) is listed as -2 | -2% | 0.5% | 4%
# `Cc1ccccc1OCCC(=O)Nc1cccc(S(=O)(=O)Nc2ccccc2Cl)c1` is listed as -8 | 5% | -0.4% | 9%

# 2 neighbouring compounds from above, quoted:
GLA inh pH 4.5	miR-21 reporter	Rango-impB inh	Rango release inh	molecule
/	18%	1.4%	32%	COc1cccc(OC)c1OCCCN1CCC(Cc2ccccc2)CC1
/	-4%	3.0%	-3%	Cc1cccc(N2CCN(C3CCCCC3NS(=O)(=O)c3ccccc3)CC2C)c1 (stereo unspecified)

# (continued)
GLA inh pH 4.5	miR-21 reporter	Rango-impB inh	Rango release inh	molecule
-8	-36%	0.0%	1%	Nc1[nH]ncc1N=Nc1ccc(Cl)cc1
2	-4%	?	-4%	COc1ccc(NC(=O)CSc2nc3ccccc3c(=O)n2CCNC(C)=O)cc1
2	-3%	-0.1%	-14%	O=C(CCN1CCOCC1)Nc1ccccc1
/	/	7.6%	14%	CC#CCN1C=C(C(=O)OCC)C(C)N(Cc2ccc(Br)cc2)S1(=O)=O (stereo unspecified)
/	-7%	0.4%	-8%	CCOc1ccccc1NC(=O)NC1(C(=O)NCc2cccnc2)CCCCC1
/	-5%	4.8%	-8%	CC(=O)c1cccn1S(=O)(=O)c1ccccc1
-8	-2%	-4.2%	7%	NS(=O)(=O)c1ccc(NC(=O)COC(=O)c2ccc([N+](=O)[O-])s2)cc1
5	-17%	1.1%	9%	Cc1ccc(-n2nnnc2SCC(=O)N2CCCCC2)cc1
/	5%	-1.5%	-13%	COc1ccc(S(=O)(=O)N2CCN(C(=O)c3oc4ccccc4c3C)CC2)cc1
/	/	-0.6%	-15%	COc1cccc(C2c3c(oc4ccccc4c3=O)C(=O)N2Cc2ccco2)c1 (stereo unspecified)
?	-42%	?	?	O=c1oc2cc(O)ccc2cc1-c1ccc(F)cc1
4	15%	-0.1%	-1%	Cc1ccc(C2CC(=O)NC(SCC(=O)OCc3ccccc3)=C2C#N)o1 (stereo unspecified)
/	2%	-3.3%	22%	CNC(=O)COc1ccc(S(=O)(=O)N2CCCC2)cc1
5	0%	0.2%	20%	CCC(C)NC(=O)Cc1c(OC)ccc2cc(Br)ccc12 (stereo unspecified)
?	-11%	-6.7%	?	O=C(Oc1ccc2c3c(c(=O)oc2c1)CCCC3)c1cccs1
/	/	-3.1%	-14%	C[C@H](O)Cc1cc2ccccc2c(=O)o1
-7	-2%	2.9%	-9%	Cn1c(SCC(=O)N2CCCC2=O)nnc1-c1ccccc1F
4	-66%	-1.0%	9%	COc1ccccc1-c1ccc(NC2CCCC2)nn1
4	-3%	/	/	COc1ccc(C(=O)Oc2ccc(C(=S)N3CCCC3)cc2)cc1OC
-6	-2%	-2.4%	21%	Cn1cnnc1Sc1ccc(/C=C(\CCC(=O)O)c2nc3ccccc3s2)cc1[N+](=O)[O-]
/	/	-0.1%	-18%	COc1ccccc1NC(=O)Nc1nc(CC(=O)NC2CCCC2)cs1
1	-4%	-1.1%	7%	CCOC(=O)c1cccc(NC(=S)NCc2ccc(C)cc2)c1
-7	-3%	-4.0%	2%	O=C(Nc1ccc(N2CCOCC2)c(Cl)c1)c1c(F)c(F)c(F)c(F)c1F
/	1%	-0.4%	-5%	O=C(O)CCNC(=O)COc1ccc2c3c(c(=O)oc2c1)CCCC3
1	-45%	-0.1%	-12%	Cc1cc(C(=O)CSc2nnc(-c3cccnc3)n2-c2ccccc2)c(C)n1CC1CCCO1 (stereo unspecified)
/	/	-0.2%	1%	CC(=O)c1cc2c(cc1NC(=O)CCc1c(C)nc3ncnn3c1C)OCO2
0	-57%	0.5%	8%	C=CCOc1ccc(/C=N/Nc2ccccn2)cc1OC
?	4%	-3.8%	12%	CSc1nnc(-c2cccn(Cc3cccc(Cl)c3)c2=O)o1
-4	-22%	?	0%	CCn1c(CC(=O)Nc2cccc(Cl)c2Cl)nnc1SCCOc1ccc(OC)cc1
8	3%	-2.6%	-1%	Cc1ccccc1CC(=O)c1ccc(O)c(C)c1O
3	-3%	-0.1%	-9%	O=C(NCCCn1ccnc1)/C(=C\c1cccnc1)NC(=O)c1ccccc1F
-6	-15%	-1.5%	-15%	CC(C)n1c(NCc2ccc(N(C)C)cc2)nc2ccccc21
3	10%	-2.1%	3%	Cc1nc(SC(C(=O)c2ccccc2)c2ccccc2)nc2ccccc12 (stereo unspecified)
/	5%	-3.1%	-5%	CCN1CCN(CCC(=O)Nc2cc(OC)ccc2OC)CC1
-1	-4%	?	0%	COC(=O)c1cc(NS(=O)(=O)c2ccc(OC)c(OC)c2)ccc1Cl
/	1%	2.3%	-5%	COc1ccc(CC(=O)N/N=C(\C)c2cccnc2)cc1
7	-7%	?	-27%	Cc1cc(/C=N/n2cnnc2)c(C)n1-c1ccc2c(c1)OCO2
-9	-2%	-0.9%	-9%	CCOC(=O)C1=C(C)N=C2SC(C(=O)OC)=CC(=O)N2C1c1cc(OC)c(OC)c(OC)c1 (stereo unspecified)
-1	1%	0.3%	-1%	COc1ccc(CCN2C(=O)CC(N3CCN(S(=O)(=O)c4ccccc4)CC3)C2=O)cc1 (stereo unspecified)
0	0%	?	?	Cc1ccc(-c2cc(C(F)F)n3ncc(C(=O)NCc4ccco4)c3n2)cc1
/	/	-0.2%	-1%	COc1ccccc1CNC(=O)C1CC2Cn3c(nc4cc5ccccc5cc43)C2N1C (stereo unspecified)
-1	-2%	1.5%	0%	CC(C)CNC(=O)C1CC(=O)OC12CCCCC2 (stereo unspecified)
/	/	6.0%	0%	Nc1ccc(Sc2ccccc2Cl)nc1
3	5%	0.5%	-10%	CCCCOP(=O)(OCCCC)C(O)c1ccc(F)cc1 (stereo unspecified)
/	/	-1.1%	-3%	N#CC(C#N)=C1SC(=Nc2ccccc2)C(=Nc2ccccc2)N1c1ccccc1
/	4%	-3.9%	-3%	CC1CCN(C(=O)CSc2nnc3c(n2)[nH]c2ccccc23)CC1
/	-8%	-2.7%	7%	COCC1CCN(C(=O)C2CCC(=O)N(C3CCCC3)C2)CC1 (stereo unspecified)
23	0%	-4.9%	-10%	Cc1cc(C)c2nc(-c3ccco3)cc(C(=O)O)c2c1
/	-4%&5%	2.8%	-10%	COc1ccc(C(CNC(=O)c2oc3cc(C)c(Cl)cc3c2C)N2CCCCC2)cc1 (stereo unspecified)
-13	-2%	?	-21%	Cc1ccc(NC(/C=C/N(C)C)=C/C(=O)C(F)(F)F)c(C)c1
2	-4%	0.9%	14%	Cc1noc(NC(=O)c2ccccc2C(F)(F)F)c1C#N
/	/	0.7%	4%	CCCNC(=O)C(Cc1ccc(F)cc1)NC(=O)c1ccc(C#N)cc1 (stereo unspecified)
10	-5%	-4.0%	-10%	CCOc1ccc(C(c2c(C)[nH][nH]c2=O)c2c(C)[nH][nH]c2=O)cc1OCC
-25	-18%	?	?	O=C1N=C(N2CCOCC2)S/C1=C/c1ccc(-c2ccc(F)cc2)o1
3	-34%	0.2%	-10%	Cc1cccc(NC(=O)c2ccc(N3CCOCC3)c([N+](=O)[O-])c2)n1
-3	-6%	-2.0%	-9%	O=S(=O)(/C=C/c1ccccc1)N1CCN(c2ccc(F)cc2)CC1
-1	-33%	1.1%	-19%	FC(F)(F)c1nc2cc3nc4ccccc4[nH]c3cc2n1
/	/	-1.7%	13%	COc1ccc(C2=CC(=O)C[C@H](c3ccc(Cl)cc3)C2)cc1
6	9%	1.8%	-19%	CC(C)CC(COCc1cccc(Cl)c1)N1CCN(C(=O)c2cccc(C(F)(F)F)c2)CCC1=O (stereo unspecified)
/	0%	3.7%	-20%	O=S(=O)(NC1CCCCC1N1CCN(c2cccc(Cl)c2)CC1)c1ccccc1 (stereo unspecified)

# The list continues:
GLA inh pH 4.5	miR-21 reporter	Rango-impB inh	Rango release inh	molecule
-3	-6%	-0.5%	-4%	COc1cc2c(cc1OC)C(c1ccncc1)CC(=O)N2 (stereo unspecified)
/	/	4.5%	3%	CC(=O)Nc1ccc(S(=O)(=O)NCCC(=O)OCC(=O)NC(C)c2ccc(Cl)cc2)cc1 (stereo unspecified)
9	-1%	-2.1%	8%	O=C(CN1CCCCCC1)N1c2ccccc2Sc2ccccc21
/	-60%	3.2%	-20%	COc1cccc(NC(=O)c2cc3ccccc3cc2OC)c1
/	0%	2.4%	5%	COc1ccc(NC(=O)c2cc3c(COC(C)=O)cnc(C)c3oc2=Nc2cccc(C(=O)O)c2)c(OC)c1

# Not all compounds are listed, so the mix of outcomes need not match the whole.
